Sfp PPTase inh: Sfp phosphopantetheinyl transferase inhibition | Biochemical Sfp PPTase activity, qHTS | Q9F4F7 | hit rate 3.5% among 310,000 | Potency, µM, without a hit: max response, negative = inhibition, usual class: inhibitors; active means well fitted inhibition curve with a large enough effect; inconclusive means small, poorly fitted or top-dose-only effect, or another doubt; inactive means no such curve, though single readings can be large or run the other way;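 further: the enzyme is Sfp with the accession as filed and its product quenches rhodamine fluorescence; potency means the concentration at half of the fitted maximal effect; 0% = enzyme reaction without inhibitor and -100% = no enzyme wells; top concentration of the series not given in the record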
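Compounds were incubated with enzyme (final 15 nM) for 15 min at room temperature before substrate addition started the reaction. Fluorescence at 525 nm excitation, 598 nm emission was recorded immediately and after 30 minutes.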
gsp antagonist: antagonizes gsp, the McCune-Albright syndrome mutation | gsp-mutant cells, cAMP HTRF, 30 min; control for the full effect not named in the record | Potency, µM (top dose mostly 76.9 µM), without a hit: top-dose activity change, negative = inhibition, hits mostly inhibitors | hit rate 0.4% among 340,000; active = falling curve of any shape with a large fitted effect; inconclusive = falling curve, mostly with a smaller effect; inactive = flat or rising curve; cell line not stated here;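 further: intracellular cAMP measured with PDE inhibitor Ro 20-1724 present during compound exposure; potency means the concentration at half of the fitted maximal effect; on the % scale 0 is the no-effect control and ±100 the full control effect; nearly all actives have a fitted effect of over 65% in size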
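HTRF cAMP measurement after 30 min RT detection following 30 min, 37C compound treatment alongside […] (added as 300 uM solution) in G418-selected cells seeded at 2000/well and grown 16–24 h.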
PINK1 expr mod: PINK1 expression modulation; PINK1 immunofluorescence, high-content cytometry, 24 h; Potency, µM (highest dose often 76.6 µM), inactives show at the top dose activation (PINK1 increase), actives largely listed as activators; hit rate 0.2% among 410,000; active = well fitted activation curve with a large enough effect; inconclusive = small, poorly fitted or top-dose-only effect; inactive = flat fitted curve, though single readings scatter; cell line not stated here;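 further: potency means the concentration at half of the fitted maximal effect; % of control where 0% means no effect; nearly all actives have a fitted effect of over 65% in size; a mitochondrial uncoupler was the plate control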
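PINK1 protein level read as immunofluorescence by microplate cytometer in a fixed, stained stable cell line after 24 h exposure to five compound concentrations, with CCCP as control.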
Menin MLL FP FL: displaces fluorescein MLL peptide from human menin | AID 1766 | 290,000 tested, under 10 active | Fluorescence polarization, fluorescein-MLL peptide displacement from menin | FP activity change, % at 61.4 µM; inconclusive = falling polarisation curve, or a change in total fluorescence; inactive = total fluorescence flat and polarisation flat or rising; no compound was filed as active; the % refers to the polarisation; negative = inhibition;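 further: % of control where 0% means no effect; inhibitors lower the polarisation; unlabelled MLL peptide was the positive control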
ClpP mod: qHTS Assay for Activators of ClpP. ATP-dependent Clp protease proteolytic subunit (Bacillus subtilis (strain 168)), P80244. purified B. subtilis ClpP, FRET peptide cleavage, 20 min. Potency, µM (highest dose often 57.5 µM), without a hit: at the highest dose activity change, negative = active. hit rate 1.9% among 340,000. AID 651965, 2013; active = well fitted falling curve with a large enough effect; inconclusive = small, poorly fitted or top-dose-only effect; inactive = no such curve, though single readings can be large or run the other way; further: potency means the concentration at half of the fitted maximal effect; the source files actives as falling curves though it sought activators and does not explain the sign; nearly all actives have a fitted effect of over 65% in size; many hits overshoot -100%
Target sequence (P80244 whole entry, looked up): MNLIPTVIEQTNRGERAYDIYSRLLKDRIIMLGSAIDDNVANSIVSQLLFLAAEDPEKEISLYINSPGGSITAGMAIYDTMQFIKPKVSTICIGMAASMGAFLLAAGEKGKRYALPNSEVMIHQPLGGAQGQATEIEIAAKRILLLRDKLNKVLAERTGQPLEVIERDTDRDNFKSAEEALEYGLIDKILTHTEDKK
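ClpP 10 microg/mL final, pH 8 Tris/KCl buffer with BSA, glycerol, Tween-20; compound pinned in; FRET-FV substrate; RT 20 min; Ex320/Em430; ΔFRET vs ADEP 5.8 microM, DMSO, no enzyme.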
D2 agonist: human D2 receptor agonism in beta-arrestin assay | DiscoveRx PathHunter D2 beta-arrestin, luminescence, 90 min; 100% = 57 uM dopamine signal | AID 624465 | P14416 | activation, % (no concentration beside the values) | hit rate 0.084% among 360,000; in the data active = activation above about 40%; inconclusive = about 15% to 40%; inactive = below about 15%; further: compound concentration not given in the record; the text of the record calls up to 30% inactive
Target sequence (P14416 whole entry, looked up): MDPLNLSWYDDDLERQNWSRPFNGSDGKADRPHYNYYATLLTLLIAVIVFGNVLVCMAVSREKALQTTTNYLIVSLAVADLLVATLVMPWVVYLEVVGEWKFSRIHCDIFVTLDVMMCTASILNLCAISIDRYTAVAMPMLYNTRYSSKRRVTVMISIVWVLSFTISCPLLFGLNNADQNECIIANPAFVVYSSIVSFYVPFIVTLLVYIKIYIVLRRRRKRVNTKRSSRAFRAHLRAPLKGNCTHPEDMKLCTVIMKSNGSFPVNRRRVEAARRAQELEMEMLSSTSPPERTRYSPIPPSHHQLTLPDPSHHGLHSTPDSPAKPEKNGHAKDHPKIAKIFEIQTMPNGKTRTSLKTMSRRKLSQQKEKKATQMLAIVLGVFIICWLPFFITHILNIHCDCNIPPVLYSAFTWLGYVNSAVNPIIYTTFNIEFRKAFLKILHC
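Agonist mode: compounds alone added to overnight-plated D2 PathHunter cells for 90 min at 37 C, with 57 uM final dopamine (EC100) defining full response. Beta-arrestin recruitment detected by chemiluminescent reagent, read after 1 h at ambient temperature.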
gsp ag: gsp mutant agonism. gsp mutant cells, cAMP HTRF, 30 min; control for the full effect not named in the record. AID 624287. hit rate 0.13% among 340,000. Potency, µM (top dose mostly 76.9 µM), without a hit: at the top dose activation (cAMP increase), actives largely listed as activators; active = well fitted activation curve with a large enough effect; inconclusive = small, poorly fitted or top-dose-only effect, or another doubt; inactive = no such curve, though single readings can be large or run the other way; cell line not stated here;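 further: phosphodiesterase inhibitor Ro 20-1724 added with compounds to block cAMP breakdown; potency means the concentration at half of the fitted maximal effect; nearly all actives have a fitted effect of over 60% in size; about a fifth of the inactives were tested at one dose only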
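Cells stably selected in G418 were plated at 2000/well, grown 16-24 hr, then given compounds in DMSO with the PDE inhibitor […] (300 uM solution added) for 30 min at 37C; cAMP was read by HTRF.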
Active calls of the source: *; ? = inconclusive; . = not tested or not shown; [ ] = another dose, or the depositor's remark. The order is random, and some 5.1% of all compounds hit somewhere here.

Structure,Sfp PPTase inh,ClpP mod,gsp antagonist,D2 agonist,PINK1 expr mod,Menin MLL FP FL,gsp ag
O=C1CCC(C(=O)N(CCO)Cc2ccccc2)CN1CCc1cccc(F)c1 (stereo unspecified),.,0.1%,.,-2.2,1.6%,.,-2%
CCN1C(=O)CSC1=Nc1ccccc1Cl,20%,-1.3%,-10%,-0.7,-0.3%,-1.1,10%[15.4 µM]
Cc1csc(=O)n1CC(=O)OCC(=O)NC(C)c1ccc(F)cc1 (stereo unspecified),.,0.4%,14%,-2.8,0.8%,.,-30%[inhibitor]
O=C(COc1ccc2c3c(c(=O)oc2c1)CCC3)N1CCN(c2ccc(F)cc2)CC1,3%,3.4%,-21%,-8.0,0.0%,-7.8,16%
N#Cc1c(NC(=S)NC(=O)c2ccccc2)sc2c1CCC2,22µM*,-26%,1%,-1.9,0.9%,7.3,?
Cc1c(Cl)cccc1NC(=O)CCC(=O)c1cccs1,20%,0.2%,9%,-7.3,4.4%,5.6,-41%[inhibitor]
CCCCCC(=O)N1C[C@H](n2cc(-c3ccc(F)cc3)nn2)[C@@H](O)C[C@@H]1c1ccc(C)cc1,.,-0.4%,.,-10,?,.,-18%
O=C(COC(=O)/C=C/c1ccccc1)NC1CCCCCC1,.,-8.9%,6%,0.1,0.3%,.,-3%[15.4 µM]

3 of the compounds above, with two lines to a compound:
Each structure is followed by: Sfp PPTase inh | ClpP mod | gsp antagonist | D2 agonist | PINK1 expr mod | Menin MLL FP FL | gsp ag
N#Cc1c(NC(=S)NC(=O)c2ccccc2)sc2c1CCC2
    22µM* | -26% | 1% | -1.9 | 0.9% | 7.3 | ?
O=C(COC(=O)/C=C/c1ccccc1)NC1CCCCCC1
    . | -8.9% | 6% | 0.1 | 0.3% | . | -3%[15.4 µM]
CCN1C(=O)CSC1=Nc1ccccc1Cl
    20% | -1.3% | -10% | -0.7 | -0.3% | -1.1 | 10%[15.4 µM]

(list continues)
Structure,Sfp PPTase inh,ClpP mod,gsp antagonist,D2 agonist,PINK1 expr mod,Menin MLL FP FL,gsp ag
Cc1cccc(NC(=O)c2ccc(Cl)c(S(=O)(=O)N3CCCCC3)c2)n1,.,0.6%,?,1.2,1.7%,.,11%[15.4 µM]
COC(=O)c1cc(Br)c(=O)n(CC(C)C)c1,18%,3.8%,-1%,0.2,-2.5%,5.1,-38%[inhibitor]
COC(=O)c1[nH]c2ccccc2c1NC(=O)c1c(F)cccc1F,19%,-1.7%,2%,-5.5,0.6%,-0.8,0%
CCn1cc(C(=O)NCCCN2CCN(C)CC2)c(=O)c2cc(S(=O)(=O)N3CCc4ccccc4C3)ccc21,4%,-3.3%,4%,0.7,-0.7%,-0.1,-14%
COc1ccc2cc(C(=O)N3CCN(Cc4ccc5c(c4)OCO5)CC3)[nH]c2c1,4%,-5.6%,?,-3.9,3.8%,.,?
O=c1[nH]c(N2CCN(c3ccccc3)CC2)nc2c1CCC2,5%,-0.4%,6%,-0.6,-0.5%,3.1,-22%
COc1ccc(OC)c(S(=O)(=O)Nc2cnc3ccccc3c2)c1,9%,1.9%,-13%,-3.4,3.4%,0.3,2%
CCC(C)(C)n1nnnc1C(c1ccccc1OC)N1CCSCC1 (stereo unspecified),-11%,-1.0%,-13%,-0.6,.,-1.1,2%
CC1CCN(C(=O)COC(=O)CCC(=O)c2ccc(F)cc2)CC1,.,-0.1%,-3%,-5.5,-0.3%,.,1%[15.4 µM]
COC(=O)C1(C(=O)OC)C2C(=O)C3C(C21)C3(C(=O)OC(C)(C)C)C(=O)OC(C)(C)C (stereo unspecified),.,-1.2%,.,-5.4,3.8%,.,?
OCC1OC(n2cnc3c(NCc4ccccc4O)ncnc32)C(O)C1O (stereo unspecified),.,-2.6%,0%,-0.4,-7.2%,.,-16%
COCc1cc(C)nc(NCCc2ccccc2)c1C#N,-25%,3.5µM*,1%,0.8,1.6%,0.9,?
O=C(C[n+]1ccc(-c2cc(C(=O)Nc3cccc(C(F)(F)F)c3)c3ccccc3n2)cc1)c1cccc([N+](=O)[O-])c1,50µM*,.,-3%,-6.1,-0.5%,0.8,-22%
COc1ccc(NC(=O)CN(C)C(=O)c2ccc(-c3cccc(C(F)(F)F)c3)o2)cc1,19%,-4.8%,-23%,-3.6,0.2%,.,-4%
COc1cc(NC(=S)N2CCN(C)CC2)cc(OC)c1,5%,-0.8%,3%,4.6,-1.5%,-2.6,-1%
Cc1cccc(NC(=S)N/N=C2/CCCCc3ccccc32)c1,1%,-2.7%,-4%,-12,0.3%,-0.2,-6%
CCC(CC)C(=O)Nc1cc([N+](=O)[O-])ccc1F,3%,0.1%,-3%,-2.7,0.2%,-0.5,-1%
COc1ccc(CCNC(=O)c2cc3c(=O)n4ccccc4nc3n(CCCN3CCOCC3)c2=N)cc1,15%,-9.4%,4%,-6.6,2.6%,-0.1,-83%[inhibitor]
O=C(Nc1cc(=O)[nH]c2ncnn12)c1ccc(Cl)cc1Cl,6%,-1.5%,-4%,0.3,-0.1%,7.3,22%
O=C(O)C1CCCC2CN3CCc4c([nH]c5ccccc45)C3C(O)C21 (stereo unspecified),-10%,.,-16%,?,3.4%,?,9%
COc1ccc(NC(=O)CSc2nc3ccccc3c(=O)n2CCNC(C)=O)c(OC)c1,25µM*,-1.1%,5%,-2.0,5.9%[38.3 µM],0.9,2%
CCn1c(SCc2nc3sc(C(=O)O)c(C)c3c(=O)[nH]2)nnc1-c1ccc(Cl)cc1,-2%,-0.4%,-21%,1.4,0.1%,9.2,4%[15.4 µM]
CN(Cc1ccco1)C(=O)CN1C(=O)NC(c2ccccc2)(c2ccccc2)C1=O,.,0.5%,16%,-1.2,4.4%,.,-7%
Cc1ccc(S(=O)(=O)Nc2ccc3c(c2)C(=O)c2ccccc2-3)cc1,.,2.4%,.,-7.1,3.1%,.,.
COc1cc(-c2nc3ccccn3c2N)ccc1O,-3%,?,-13%,5.5,-1.8%,-2.9,14%
CCn1c(SCC(=O)Nc2ccccc2OC)nc2ccccc2c1=O,1%,-0.2%,6%,-1.2,.,3.6,24%
Cc1ccc(C)c(CNS(=O)(=O)c2c(C)[nH]c(C)c2C(=O)N2CCCC2)c1,10%,-0.3%,3%,3.4,-0.3%,-0.2,?
O=C(COc1ccccc1Cl)NCCCNC(=O)c1cnccn1,16%,.,12%,2.5,6.1%,5.1,16%
Oc1ccc(NC(=S)Nc2ccc(O)cc2)cc1,45µM*,2.3%,-13%,12,1.7%,2.7,-51%[inhibitor]
Cn1cnc2nc3n(c2c1=O)CCC3,-13%,-0.7%,12%,2.4,-2.6%,-3.0,?
O=C(Nc1ccccc1C(=O)Nc1ccccn1)c1cc(F)c(F)cc1Cl,6%,-2.1%,-5%,-0.1,7.4%,-2.2,-17%
O=C(CSCc1ccc([N+](=O)[O-])cc1)Nc1ccccc1C(=O)O,9%,.,-10%,3.0,0.2%,2.7,3%[15.4 µM]
CCCC(=O)c1ccc(N2CCN(C(=O)c3ccc(Br)cc3)CC2)c(F)c1,?,0.1%,17%,-3.3,-1.7%[38.3 µM],2.1,3%
C/C(=C\C(=O)c1ccccc1)Nc1ccc(Cl)c(Br)c1,.,0.5%,9%,-4.1,-1.7%,.,0%
CC(C)c1ccc(/C=N/NC(=O)c2nnn(-c3nonc3N)c2CSC2=NCCS2)cc1,10%,-7.8%,-30%,-5.8,4.0%,3.6,-29%
CCOC(=O)C1CCCN(C(=O)c2ccc([N+](=O)[O-])c(C)c2)C1 (stereo unspecified),2%,-3.2%,9%,0.0,0.1%,-1.4,22%
COc1ccc(NC(=O)Nn2cnnc2)cc1OC,6%,-1.3%,4%,-3.5,1.4%,-2.3,-4%
Cc1ccccc1OCCN1C(=O)C(=O)c2cccc(C)c21,-3%,0.9%,27%,-17,-1.7%,3.4,11%
O=C(Nc1cccc(S(=O)(=O)N2CCCCC2)c1)C1=NN(c2ccccc2)C(=O)CC1,.,-7.1%,-11%,-2.2,1.6%,.,-8%
c1ccc(-c2cccc(N3CC4(CCNCC4)C3)c2)cc1,-7%,.,.,.,3.2%,3.6,.
Cc1cccc(OCc2nnc(SCc3nc4cc(C(F)(F)F)ccc4c(=O)[nH]3)o2)c1,17%,-12%,-13%,-1.7,5.4%,9.4,25%
CCCCN(Cc1cc2ccccc2[nH]c1=O)S(=O)(=O)c1ccc(C)cc1,0%,-17%,-7%,-0.6,2.6%,2.7,-22%
CCOc1ccc(C(C)C)cc1S(=O)(=O)N1CCN(C(=O)c2ccco2)CC1,6%,2.8%,-3%,-0.6,2.2%,0.8,-14%
O=C(O)c1cccc(O)c1O,.,-17%,3%,6.6,0.7%,.,.
COc1ccc(NS(=O)(=O)c2cccc(Cl)c2Cl)cc1S(=O)(=O)N1CCCCC1,14%,?,-16%,0.2,-2.7%,-3.2,1%
CC1CC(C)CN(CCCNC(=O)Cn2ncc3c(=O)oc4ccccc4c32)C1 (stereo unspecified),1%,0.9%,1%,-9.3,-0.4%,-0.4,-13%
CCCCn1nc2cc(C(=O)NCc3ccc(C(F)(F)F)cc3C(F)(F)F)ccc2c1OCC,12%,4.1%,1%,-1.5,0.7%,-3.4,-12%
Clc1ccc(-n2nnc(-c3nccs3)n2)cc1Cl,40µM*,0.8%,0%,-7.1,0.7%,-2.9,21%
Cc1ccc(OCCC(=O)OC(C)C(=O)NC2CC2)cc1 (stereo unspecified),.,.,0%,1.1,2.2%,.,-13%[15.4 µM]
Cc1nc(CC(=O)N2CCN(S(=O)(=O)c3ccccc3C#N)CC2)cs1,-4%,-2.5%,-2%,-2.9,3.8%,1.0,2%
Cc1c2ccccc2nc2c(F)c(NC(C)C)c(F)c(F)c12,-14%,-1.0%,8%,1.8,-2.5%,?,20%[15.4 µM]
O=S(=O)(Nc1cccc2c1ccc1cccn12)c1cccs1,-3%,-19%,-13%,-1.9,-0.5%,8.2,5%

Compound activity (PubChem BioAssay)
